# MT1-MMP act inh = blocks activation of human MT1-MMP | P50281 | actives 0.061% (n = 360,000) | GFP/RFP ratio change, % at 20 µM | HT1080 RFP-PRO-GFP cells, GFP/RFP ratio fluorescence, overnight; percent of plate control window, DMSO zero;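 active = GFP/RFP ratio change of at least 30% with cell ATP level not reduced by more than half and red fluorescence within 50% of control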; also: strong numbers were not always called active
#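 Assay system: HT1080 RFP-PRO-GFP cells | Dosing: 20 µM single dose, 1% DMSO | Incubation: Cells overnight before dosing, compound overnight, 37 °C, 5% CO2 | Evaluation: GFP/RFP fluorescence ratio | Control set: DMSO-only wells and HT1080 RFP-L50D-GFP cell wells as references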
# eIF4H inh = inhibitors of RNA binding by human eIF4H. Q15056. eIF4H fluorescence polarization binding assay. inhibition, % at 35 µM. actives 0.94% (n = 290,000);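 active = 50% or more with normal probe brightness, or confirmed in later tests; inconclusive = above 50% with abnormal brightness, or retests that disagree; inactive = below 50% or failed in later tests; about a fifth of its hits are not listed in these tables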;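 also: calls also rest on retests at 20 µM and on dose response follow-up; 0% = protein and probe with vehicle and 100% = probe without protein; strong numbers were not always called active; many hits fall short of the cut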
# PABP FP inh = blocks human PABP binding to poly(A) RNA; inhibition, % at 35 µM; fluorescence polarization; actives 1% (n = 290,000); AID 2014; P11940;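 active = 50% or more with normal probe brightness, or confirmed in later tests; inconclusive = above 50% with abnormal brightness, or retests that disagree; inactive = below 50% or failed in later tests; about a fifth of its hits are not listed in these tables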;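 also: calls also rest on retests at 20 µM and on dose response follow-up; controls were probe without protein and protein plus probe with vehicle; some compounds called inactive have numbers as strong as hits; many hits fall short of the cut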
# Rce1 inh = yeast Ras-converting enzyme inhibition. Q03530. yeast membranes, quenched prenylated peptide cleavage fluorescence. calls only. actives 0.27% (n = 290,000). AID 2563;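 active = fall in fluorescence gain of 50% or more versus controls, with final raw signal at or below 3038400; inconclusive = same 50% fall but final raw signal above 3038400; inactive = fall in fluorescence gain under 50%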;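 also: plate controls were neutral control wells for no effect and wells lacking membranes for full effect; tested at 10 µM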
# Target sequence (Q03530 whole entry, looked up): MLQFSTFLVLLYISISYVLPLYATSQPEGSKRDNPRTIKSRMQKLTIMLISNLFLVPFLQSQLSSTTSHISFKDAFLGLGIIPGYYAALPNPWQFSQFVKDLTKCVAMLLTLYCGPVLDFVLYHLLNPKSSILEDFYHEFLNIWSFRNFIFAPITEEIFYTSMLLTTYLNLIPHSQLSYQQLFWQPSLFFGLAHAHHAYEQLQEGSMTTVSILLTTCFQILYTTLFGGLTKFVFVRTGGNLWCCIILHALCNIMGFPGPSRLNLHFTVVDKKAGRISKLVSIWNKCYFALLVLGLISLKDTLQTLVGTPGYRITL
# UUG fidelity = modulators of start codon recognition fidelity in yeast; S. cerevisiae UUG-firefly luciferase reporter, luminescence/redox ratio; activity score, % at 18.7 µM; actives 0.13% (n = 350,000);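 active = replicate mean at a twofold rise or more, about +100% in these data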;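 also: firefly luciferase made from a UUG start codon reports start codon fidelity; reporter light over untreated wells divided by growth signal over untreated wells; some hits fall short of that in this replicate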
# Env fusion inh = HIV envelope-mediated fusion inhibition | AID 651610 | HeLa-JRFL Env/CEM21 cell fusion, luciferase | actives 1.1% (n = 360,000) | inhibition, % at 12.3 µM;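 active = mean replicate inhibition score of at least 50 and every replicate individually at or above 50; inconclusive = only one of the two criteria met; inactive = mean below 50 and not all replicates reaching 50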;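 also: 0% = plate neutral controls and 100% = maraviroc near 300 nM; one replicate is shown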
# CSC inhib = cancer stem cell inhibition; actives 1.1% (n = 300,000); inhibition, % at 7.5 µM; cancer stem cell-like cells viability, luminescence;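 active = mean at 75% or more and at least half the replicates too; inconclusive = mean and replicates disagree; tested in HMLE shEcad cells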;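 also: 0% = median of negative and 100% = median of positive control wells; the first replicate is given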
# eIF4H inh retest = second read-out of eIF4H inh, no call of its own (marks repeat the call); inhibition, %; compound at 20 µM; confirmation average;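 mean of two retest wells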
# PABP FP inh retest = second read-out of PABP FP inh, no call of its own (marks repeat the call); inhibition, %; compound at 20 µM; confirmation repeats;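 mean of two retest wells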
# MT1-MMP act inh RFP = recorded beside MT1-MMP act inh, whose call it bears; RFP signal change, %; measured here: RFP expression control read;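 0 = vehicle wells; hits needed this value within 50% of zero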
# The depositor's hits bear a star; i = inactive; ? = inconclusive; · = not tested or not shown; & = joins results of further samples.
SMILES,MT1-MMP act inh,MT1-MMP act inh RFP,eIF4H inh,PABP FP inh,Rce1 inh,UUG fidelity,Env fusion inh,CSC inhib,others
COc1ccc(C)cc1NC(=O)c1cc(-c2ccccc2)nc2c1cnn2C(C)C,-2,-2,·,·,·,-4,22,·,
CC(=O)c1ccc(CCCCCCCCCC(=O)O)s1,0,4,-5,0,i,-22,·,-13,
COc1ccc(C(=O)Nc2ccc(Cl)cn2)cc1Cl,-1,-6,-1,-2,i,-21,-54,-1,
Cc1cc(C)cc(Oc2coc3cc(O)ccc3c2=O)c1,-3,4,-5,-3,i,-6,0,3,
C=CC(=O)Nc1cccc(Oc2cc(Cl)nc3[nH]ccc23)c1,-5,-11,·,·,·,-13,-60,·,
CC(=O)c1cccc(NC(=O)CC2Oc3ccc(C)cc3NC2=O)c1 (stereo unspecified),4,0,3,5,i,-13,5,-6,
Cn1c(CNC(=O)CNS(=O)(=O)c2ccc(F)cc2F)cc(=O)n(C)c1=O,3,5,-4,-9,i,-5,8,-16,
CC(C)CNC(=O)COC(=O)c1cc(S(=O)(=O)N2CCCCC2)ccc1N1CCOCC1,-2,-1,4,5,i,-9,·,-3,
CNC[C@@H]1OCc2ccccc2-c2c(n(C)c3ccccc23)C(=O)N([C@H](C)CO)C[C@H]1C,-3,-1,·,·,·,7,-21,·,
Cc1c(C(=O)N2CCOCC2)[nH]c2c1C(=O)CC(c1ccccc1Cl)C2 (stereo unspecified),-5,-10,7,6,i,14,·,47,
Fc1ccc(-c2nnc(CN3CCN(c4ncc(C(F)(F)F)cc4Cl)CC3)o2)cc1,5,-8,1,2,i,-11,68*,15,
COC(=O)c1[nH]c2ccc(C)cc2c1NC(=O)CN1CCc2cc(OC)c(OC)cc2C1,1,-6,-8,29,i,1&-3,·,-11,
O=C1C=C(/C=C/c2ccccc2)C[C@@H](c2ccc(F)cc2)C1,0,1,·,·,·,-15,-5,9,
COc1cccc(OCc2cc(C(=O)N3CCNC(=O)C3Cc3ccccc3)no2)c1 (stereo unspecified),0,-2,-13,-4,i,15,-6,-5,
CCCOC1CCCN(C(=O)c2cc(COc3ccc(-n4cncn4)cc3)on2)C1 (stereo unspecified),2,-11,-3,13,i,·,-8,13,
CCOc1ccc(N(CC(=O)Nc2ccccc2OCC)S(=O)(=O)c2c(C)noc2C)cc1,9,-6,-3,-2,i,-7,46,46,
CCCCNC(=S)N=Nc1c(O)[nH]c2ccccc12,15,3,1,4,·,·,3,-15,
CC(=O)c1ccc(NC(=S)NC(=O)CC(C)C)cc1,-1,-1,-3,-1,i,·,-17,-13,
COc1ccccc1N1CCN(/N=C/C(Cl)=C/c2ccccc2)CC1,4,-3,3,-7,i,-12,-30,27,
COc1cc(/C=N\NC(=O)CNC(=O)C2COc3ccccc3O2)ccc1O (stereo unspecified),2,3,-6,9,i,-6,-2,12,
C/C(=N\Nc1ccc(F)cc1F)c1cccs1,·,·,-1,75,i,·,·,11,eIF4H inh retest=22;PABP FP inh retest=36
Cc1cccc(NC(=O)CSc2cccc[n+]2[O-])c1C,0,3,·,·,·,-6,?,-10,
O=C(O)CNC(=O)C(Cc1ccccc1)NC(=O)OCc1ccccc1 (stereo unspecified),1,4,-3,3,i,·,-9,·,
CCOC(=O)C1=C(O)CSC1=Nc1cccc(Cl)c1,-1,4,-3,-3,i,-6,·,-1,
O=C(NC1CCS(=O)(=O)C1)c1ccc(S(=O)(=O)N2CCCC2)cc1 (stereo unspecified),-1,3,-2,1,i,-18,-58,-3,
# Other compounds follow.
SMILES,MT1-MMP act inh,MT1-MMP act inh RFP,eIF4H inh,PABP FP inh,Rce1 inh,UUG fidelity,Env fusion inh,CSC inhib,others
COc1cc(/C=N/NC(=O)c2ccncc2)ccc1OC(=O)c1ccccc1Cl,-1,3,28,-4,i,·,14,-22,
Cc1cc(-n2cccn2)ccc1CN1CCN(C2CCCC2)C(CCO)C1 (stereo unspecified),0,-2,2,4,i,·,-14,43,
Fc1ccc(CN2C3=NCCCN3c3ccccc32)cc1,1,4,-5,13,i,·,-11,-8,
FC(F)(F)c1ccc(Oc2ccc3c(C(F)(F)F)cc(C(F)(F)F)nc3n2)cc1,0,-3,0,7,i,-13,22,5,
O=[N+]([O-])c1ccc(N2CCN(S(=O)(=O)c3ccccc3)CC2)cc1NCc1ccco1,·,·,9,-8,i,·,·,21,
COc1ccc(C)cc1NS(=O)(=O)c1ccc2c(c1)N(C)CCO2,3,-8,-15,-2,i,-3,8,-5,
Cc1ccc(OCCc2csc(N)n2)cc1,2,0,-7,6,i,-21,-19,6,
O=C(COC(=O)c1cccs1)NCCC1=CCCCC1,2,3,-7,-10,i,·,-3,-8,
Cc1ccc(Cn2nnnc2CN2CCC(O)(c3ccc(F)cc3)CC2)cc1,0,-2,5,0,i,-5,·,·,
CC1(C)CC2CC(C)(CN2C(=O)c2cc(-c3ccc(O)cc3)on2)C1 (stereo unspecified),0,-2,3,0,i,9,8,87*,
CCOc1ccc(CSCCNC(=S)Nc2ccc(OC)cc2)cc1,-2,-15,-1,-3,i,·,12,5,
CCCC(=O)Nc1nnc(S(=O)(=O)N(CC)c2ccc(OC)cc2)s1,-2,-2,-1,-8,i,-13,-13,1,
CCN(CC)S(=O)(=O)c1cc(C(=O)O)ccc1Cl,5,6,-1,4,i,-16,-26,-10,
Cc1cccc(C2c3[nH]c4ccccc4c3CCN2C(=O)c2cc(-c3cccn3C)n[nH]2)n1 (stereo unspecified),0,-4,-9,-21,i,-8,-12,-10,
CCCOc1ccc(N2C(=O)CC(N(CCc3ccc(OC)cc3)C(=O)/C=C/C(=O)O)C2=O)cc1 (stereo unspecified),-1,3,-3,-6,i,·,10,5,
Oc1ccc(-n2cnnn2)cc1,-2,1,6,4,i,-10,-35,-8,
CCCNc1nc(Cl)nc(Nc2ccc(Cl)cc2)n1,4,-7,9,7,i,-6,4,1,
COc1ccc(C(=O)NNC(=O)C(=O)Nc2ccc(C)cc2)cc1,-2,4,7,0,i,-8,7,6,
CCOC(=O)C1(C)CCCN(C(=O)c2cccc(C#N)c2)C1 (stereo unspecified),2,3,·,·,·,-11,22,·,
CCc1nnc(NC(=O)CSc2nc3c(cc2C#N)CCC3)s1,5,-4,-10,1,i,-6,-241,10,
O=C(/C=C/c1ccccc1Cl)NCCN1CCOCC1,3,7,5,21,i,-15,·,11,
COc1ccc(C)cc1NC(=O)C1CCCN(S(=O)(=O)c2cccc3nonc23)C1 (stereo unspecified),-2,-4,4,1,i,·,·,-10,
CCn1cc([C@@H]2C[C@H]3CN(Cc4cccc(Cl)c4)C(=O)[C@]34CCCN24)c(C)n1,-3,0,-13,-4,i,·,21,-7,
CCCC(c1nnnn1Cc1cccs1)N1CCN(c2nc3ccccc3s2)CC1 (stereo unspecified),-2,-12,1,-17,i,-16,·,3,
O=C(N/N=C/c1ccc(O)c(O)c1)c1cccc(S(=O)(=O)N2CCCCC2)c1,2,1,5,-18,·,-2,15,10,
# Further records follow:
SMILES,MT1-MMP act inh,MT1-MMP act inh RFP,eIF4H inh,PABP FP inh,Rce1 inh,UUG fidelity,Env fusion inh,CSC inhib,others
COc1ccc(C(CNC(=O)c2oc3cc(Br)ccc3c2C)N2CCCCC2)cc1 (stereo unspecified),0,-4,1,-13,i,2,1,-6,
CN(C)S(=O)(=O)c1ccc(Cl)c(C(=O)OCC(=O)NNC(=O)c2cccs2)c1,-3,1,·,·,·,-14,-3,·,
COc1ccc(CNC(=O)CCSCc2cccc(F)c2)cc1,-1,2,2,-10,i,2,18,-5,
O=C(CC1C(=O)NCCN1Cc1cccc(C(F)(F)F)c1)NC1CCCCCC1 (stereo unspecified),2,6,-16,10,i,6,·,-2,
CCn1c(CSc2nc3ccccc3s2)nnc1SCC(=O)c1ccc(Cl)cc1,-1,-4,-7,-1,i,-22,·,0,
COc1cc(-c2csc(C)n2)ccc1O,0,-3,-14,-4,i,-18,·,-13,
CCC1(C(=O)OC)NC(c2ccco2)C2C(=O)N(c3ccccc3)C(=O)C21 (stereo unspecified),-2,2,-2,13,i,·,-29,11,
CCNC(=S)Nc1cccc(F)c1C,2,5,11,1,i,·,6,-15,
CC1=[N+]([O-])C(C)(C)C(C)N(O)C1=O (stereo unspecified),-5,-3,-2,-9,i,-9,·,3,
CCOc1ccc(C(=O)COC(=O)CN2C(=O)NC3(CCCCC3C)C2=O)cc1 (stereo unspecified),1,4,·,·,·,3,7,-9,
Cc1ccccc1NC(=O)CSC1=C(C#N)C(c2ccsc2)CC(=O)N1 (stereo unspecified),4,-1,-12,9,i,-2,·,22,
O=C(c1ccccc1)N1CCc2ccccc21,-3,-2,-14,-4,i,-6,·,4,
COc1cccc(/C=C(/C(=O)OCC(N)=O)c2ccccc2)c1,0,-2,-8,-9,i,·,5,-8,
CCOC(=O)c1csc(NC(=O)CSc2nnnn2CC)n1,-2,1,0,2,i,-13,·,-11,
O=[N+]([O-])c1cccc(/C=N/N2CCN(c3ccccn3)CC2)c1,5,-2,-5,-8,i,·,-4,16,
NS(=O)(=O)c1ccc(N=Nc2c(O)ccc3ccccc23)cc1,1,-7,-5,9,i,·,34,27,
COc1cccc(/C=N/NC(=O)c2ccc(=O)n(C)c2)c1OC,6,7,-11,-3,i,-6,·,-20,
Cc1nc2sc3c(c2c(=O)n1N)CCC3,1,1,-4,-7,i,·,-9,-4,
O=C1[C@H]2CC3CCC2(O3)[C@@H]2OCCCN12 (stereo partly specified),0,-1,·,·,i,-12,-3,-6,
COc1ccc(C(C)=O)cc1COc1ccc(-n2cnnn2)cc1,-2,-2,1,0,i,3,·,-3,
O=C(NCCCn1ccnc1)/C(=C\c1cccnc1)NC(=O)c1cccc(Br)c1,2,-1,1,-6,i,-1,5,-6,
O=C(OCC(=O)N1CCCCCC1)c1ccc[nH]c1=O,8,0,·,·,·,-19,·,-4,
NC1=NC(=O)/C(=C\c2ccco2)S1,-3,3,?,?,i,·,5,-6,
CN1CCN(c2nc3c(c(=O)n(C)c(=O)n3C)n2CC(=O)C23CC4CC(CC(C4)C2)C3)CC1,1,-3,-2,-11,i,5,·,·,
Nn1c(COc2ccccc2)nnc1SCc1cc(=O)[nH]c2ccccc12,15,-2,4,-7,i,-8,·,-13,
# (more compounds)
SMILES,MT1-MMP act inh,MT1-MMP act inh RFP,eIF4H inh,PABP FP inh,Rce1 inh,UUG fidelity,Env fusion inh,CSC inhib,others
CCN(CC(=O)Nc1ccc(OC)cc1)CC(=O)N1CC(=O)Nc2ccccc21,-2,4,·,·,·,-5,·,-11,
O=C(c1cnn(-c2ccccc2)c1-n1cccc1)N1CCN(C2CCCCC2)CC1,5,6,-2,0,i,-4,-24,47,
Cc1ccc(NC2=C(Cl)C(=O)c3ccccc3C2=O)cc1,-8,-28,-2,42,i,-25,-22,112*,
CC(NC(=O)CN1c2cccc3cccc(c23)S1(=O)=O)c1ccc(S(N)(=O)=O)cc1 (stereo unspecified),2,-1,·,·,i,-12,-1,-11,
O=C(NCCc1ccc(Cl)cc1)c1ccc2[nH]c(=O)c(=O)[nH]c2c1,-4,0,-8,2,i,1,2,-22,
CCN1C(=O)C(CC(=O)NCCc2ccccc2)N(NC(=O)c2cccnc2)C1=S (stereo unspecified),1,5,-8,2,i,-6,-4,-13,
COc1ccc(CCN2CC(C(=O)NCC(c3ccccc3)N(C)C)CC2=O)cc1OC (stereo unspecified),0,4,·,·,·,-12,-14,-14,
Cc1cc(C(=O)Nc2ccccc2C(=O)O)oc1C,-1,-2,-4,2,i,-13,-2,-11,

# Source: PubChem BioAssay (several laboratories)
